# Arbovirus anti: antivirals against arbovirus infection, primary screen, cell-based, full library, 10K replicate subset | arbovirus infection cell-based antiviral screen | inhibition, % at 10 µM | actives 0.37% (n = 200,000) | AID 1251, 2008;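 active = inhibition from about 30%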;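 note: bluetongue infection of BSR cells; cell survival read as ATP light after 72 h; 0% = infected wells without compound and 100% = uninfected wells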
# RecA intein inh: Mtb RecA intein splicing inhibitors, primary screen, biochemical, fluorescence, HTS | inhibition, %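 (about 9 µM by stock and volumes)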 | actives 0.75% (n = 290,000) | cell-free RecA intein splicing | Protein RecA (Mycobacterium tuberculosis (strain ATCC 25618 / H37Rv)), P9WHJ3; in the data active = inhibition above about 30%; inconclusive = no clear call, values can overlap the other calls;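 note: 0% = vehicle wells and 100% = reference inhibitor control wells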
# Target sequence (P9WHJ3 whole entry, looked up): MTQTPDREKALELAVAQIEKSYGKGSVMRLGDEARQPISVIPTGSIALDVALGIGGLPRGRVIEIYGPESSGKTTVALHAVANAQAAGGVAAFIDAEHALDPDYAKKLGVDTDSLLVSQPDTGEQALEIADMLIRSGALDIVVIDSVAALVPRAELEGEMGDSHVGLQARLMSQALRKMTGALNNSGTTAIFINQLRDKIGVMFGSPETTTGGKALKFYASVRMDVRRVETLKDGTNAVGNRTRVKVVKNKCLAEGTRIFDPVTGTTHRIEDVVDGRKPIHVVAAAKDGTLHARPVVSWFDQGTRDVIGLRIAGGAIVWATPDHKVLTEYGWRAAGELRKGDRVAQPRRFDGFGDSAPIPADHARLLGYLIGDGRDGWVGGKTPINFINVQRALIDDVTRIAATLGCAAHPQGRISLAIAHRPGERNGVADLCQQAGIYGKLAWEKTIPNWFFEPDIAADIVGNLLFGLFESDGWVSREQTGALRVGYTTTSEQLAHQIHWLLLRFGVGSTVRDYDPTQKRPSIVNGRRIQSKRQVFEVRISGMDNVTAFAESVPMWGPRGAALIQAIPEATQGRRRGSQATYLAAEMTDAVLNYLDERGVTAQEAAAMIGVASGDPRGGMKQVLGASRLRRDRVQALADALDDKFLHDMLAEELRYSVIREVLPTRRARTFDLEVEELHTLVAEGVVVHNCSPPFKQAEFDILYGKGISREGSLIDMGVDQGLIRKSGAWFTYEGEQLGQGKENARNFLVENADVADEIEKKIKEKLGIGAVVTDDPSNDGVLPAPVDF
# Mtb bLac sens: beta-lactam sensitization of Mtb H37Rv, H37Rv | M. tuberculosis H37Rv growth with meropenem, percent inhibition; hits of this screen are not shown here | inhibition, % at 25 µM | actives 0.27% (n = 330,000) | AID 434955, 2010;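 active = about 74% or more and at least 40 points above the plate without the antibiotic, then above 30% in a dose series; inconclusive = first-round hits that could not be retested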;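 note: growth measured after seven days incubation then overnight dye step; 0% = bacteria only wells and 100% = bacteria with antibiotic; twin plates without the antibiotic show which effects depend on it; some results filed as inactive read as strong as hits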
# Mtb growth: M. tuberculosis H37Rv growth inhibitors, H37Rv strain (AID 1626); M. tuberculosis H37Rv growth inhibition; higher % means a stronger effect; inhibition, % at 10 µM; hits with a dose series show IC50 in µM; actives 0.95% (n = 220,000);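 active = confirmed in a dose series; inconclusive = inhibition above 80% but not taken into the dose series; inactive = below 80% or under 30% at every dose of the series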;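 note: bacteria incubated seven days before Alamar blue readout; 0% = bacteria only wells and 100% = bacteria with antibiotic wells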
# YopH inh: YopH tyrosine phosphatase inhibitors, primary screen, biochemical, fluorescence Ex485/Em525 | YopH tyrosine phosphatase [Yersinia enterocolitica] | inhibition, %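 (about 10 µM by stock and volumes)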 | actives 0.16% (n = 140,000);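 active = inhibition of 50% or more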;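 note: controls were vehicle for no effect and minimum signal wells for full effect; inactives centre near -20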
# Arbovirus anti repeat: recorded beside Arbovirus anti, whose call it bears; inhibition, %; measured here: 10K subset replicate screen; many hits read low in the repeat;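 first of two repeat runs on a subset; 0% = infected and 100% = uninfected wells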
# Active calls of the source: *; ? = inconclusive; / = not tested or not shown. Not all compounds are listed; count on the stated rates, not on these rows.
SMILES,Arbovirus anti,RecA intein inh,Mtb bLac sens,Mtb growth,YopH inh,others
Cc1occc1C(=O)Nc1cc(C(C)(C)C)on1,-9,0.3,6,2%,-11,
COc1ccc2oc(-c3ccccc3)c(C(N)=O)c2c1,-2,-1.9,5,-8%,-29,Arbovirus anti repeat=1
CCN1C(=O)/C(=C/C=C2/CCCN2C)OC1=S,6,-13,-3,-14%,/,
Cc1cc(F)ccc1NS(=O)(=O)c1c(C(=O)N2CCOCC2)c(C)n(C)c1C,/,-1.0,3,/,/,
COc1ccc(CCN2C(=O)C(Oc3ccccc3)C2c2ccc3c(c2)OCO3)cc1 (configuration not stated),-15,11,-2,2%,-20,
CCNc1nc(NCC)n2c(SCC(=O)Nc3cc(OC)ccc3OC)nnc2n1,/,-3.0,2,/,/,
CC1(C)Cc2c(c(-c3ccccc3Cl)[nH]c(=O)c2C#N)CO1,5,3.5,-21,-1%,-29,
O=C(NCc1ccco1)c1ccc2c(c1)N(Cc1ccc(Cl)cc1)CCS2,/,22,-1,4%,/,
COc1cc(/C=C2\NC(=S)N(C)C2=O)ccc1O,6,-1.6,1,1%,/,
CNC(=O)c1c(NC(=O)CCS(=O)(=O)c2ccccc2)sc(C)c1C,/,-0.9,-11,/,/,
CC(C)(C)c1ccc(/C=N/NC(=O)CN2CCS(=O)(=O)CC2)cc1,/,-1.4,-6,/,/,
CNC(=S)NNC(=O)CCn1nc(C)c(Br)c1C,8,0.5,-7,-1%,-12,
Cc1ccsc1/C=N/NC(=O)c1nnn(-c2nonc2N)c1CN(C)c1ccccc1,/,-2.7,2,/,/,
Cc1cc(C)cc(NC(=O)CN2CCC(C(=O)c3ccccc3)CC2)c1,/,5.4,5,/,/,
COc1ccc(CCNC(=O)C(=O)NCC2OCCN2S(=O)(=O)c2ccc(C)cc2)cc1 (configuration not stated),/,-0.5,-5,/,/,
Cc1cccc(N2C(S)=C(C#N)C(=O)NC23CCCCC3)c1,-7,1.1,-5,-9%,-19,
CCOC(=O)c1ccc(NC(=O)c2cccc(S(=O)(=O)N3CCN(C(C)=O)CC3)c2)cc1,/,-3.6,4,/,/,
Cc1cccc(CSc2nnc(-c3cnccn3)n2C)c1,/,-3.0,-14,-11%,/,
Cc1cc(C)c2c(c1)NC(C(=O)O)C1CC=CC21 (configuration not stated),/,12,1,/,/,
O=C1c2ccccc2C(=O)N1CCc1csc(-c2ccccc2)n1,-5,0.9,-6,-6%,-27,
Cc1nn(Cc2c(Cl)cccc2Cl)c(C)c1NC(=O)c1cnn2c(C(F)F)cc(-c3ccccc3)nc12,1,1.5,90,50%,-19,
CS(=O)(=O)NC1c2cccc3cccc(c23)C1Sc1nncn1/N=C/c1ccco1 (configuration not stated),12,1.4,-7,2%,-43,
Cc1ccc(NC(=O)CS(=O)CC(=O)NC2CCN(Cc3ccccc3)CC2)c(C)c1 (configuration not stated),0,1.1,3,-3%,2,
N#CC1(c2ccccc2)CCN(C2CC(=O)N(c3ccc4c(c3)OCO4)C2=O)CC1 (configuration not stated),4,0.1,-9,2%,/,
O=C(Cn1cc2c(n1)CCCCC2)Nc1ccc(F)cc1F,6,/,/,0%,-23,Arbovirus anti repeat=6
CSCCC(=O)N1CCCC(CNC(=O)c2ccccc2Cl)C1 (configuration not stated),3,-0.5,3,-8%,/,
CC(=O)NCCNC(=O)c1ccc(CSc2ccc(Cl)cc2)cc1,5,2.0,7,2%,/,
Cn1nc(C(F)(F)F)c(-c2cccc(C(F)(F)F)c2)c1NC(=O)CSCC(=O)O,/,-1.2,-2,-6%,/,
CC(=C\c1ccco1)/C=C1/SC(=S)N(CC(=O)O)C1=O,/,-3.9,-8,4%,/,
Cc1ccc(S(=O)(=O)N2CCN(C(=O)c3ccc4c(c3)OCO4)CC2)cc1,/,1.1,-1,/,/,
CCOC(=O)C1CCN(c2ncnc3c2oc2ccc(Cl)cc23)CC1,-6,/,-2,3%,-40,
O=P1(Nc2cccnc2)COc2ccccc2OC1,1,-0.9,-10,-11%,-33,
COC(=O)c1cc(NC(=S)N2CCN(c3ccccn3)CC2)cc(C(=O)OC)c1,-8,-4.0,14,0%,/,
CCOC(=O)C1=C(CNCCc2ccc(Cl)cc2)NC(=O)NC1c1ccc2c(c1)OCO2 (configuration not stated),-22,0.0,2,14%,-8,
Oc1ccc(/C(Cc2ccccn2)=N\Nc2ccccc2)c(O)c1,-16,19,-6,38%,/,
O=C(Nc1ccc(CN2CCS(=O)(=O)CC2)cc1)c1ccccc1,/,-1.4,-12,4%,/,
COc1ccc(NC(=S)NC2CCCCC2)cn1,-7,4.4,-8,5%,/,
OC1COC(O)C(O)C1O (configuration not stated),/,-1.0,3,/,/,
Cc1cc(C)nc(/N=C(/NC(=O)Nc2ccc(Cl)c(Cl)c2)Nc2cccc(Cl)c2)n1,-1,0.3,?,28%,3,
COc1ccc(CC(=O)NC2CCSc3ccccc32)cc1OC (configuration not stated),/,1.6,1,/,/,
c1ccc(-c2nc(-c3ccncc3)n[nH]2)nc1,/,-9.0,30,-11%,/,
Cc1cc(C)[n+](C)n1CC(O)Cn1c2ccccc2c2ccccc21 (configuration not stated),-2,3.3,-7,12%,/,
CC(=O)c1cccc(NC(=S)NCCc2ccc(Cl)cc2)c1,0,2.7,0,5%,/,
Cc1ccc(NC(=O)CS(=O)CC(=O)N(c2ccc(C)cc2)C(C)C(=O)NC2CCCCC2)cc1 (configuration not stated),3,1.8,-1,-3%,8,
NS(=O)(=O)c1ccc(CCNC(=O)C(=O)c2cn(CC(=O)N3CCOCC3)c3ccccc23)cc1,/,-1.9,-17,/,/,
Cc1ccc(Cl)cc1N1CCN(C(=O)C2CCN(S(=O)(=O)c3cccnc3)CC2)CC1,3,-1.5,80,74%,-4,
CN1C(=O)CC(C(=O)O)SC1=Nc1cc(Cl)c(O)c(Cl)c1 (configuration not stated),-5,0.4,-25,1%,-19,
O=C(COc1ccc([N+](=O)[O-])cc1Cl)NCCc1ccccc1,-4,-4.0,0,11%,-33,
N#Cc1cccc(NC(=O)CC2CCCCC2)c1,-1,-0.2,4,2%,-13,Arbovirus anti repeat=0
Cc1cccc2cc3c(N)c(C(=O)N4CCCc5ccccc54)sc3nc12,-20,1.0,7,?,-19,
CC1CCCC(NS(=O)(=O)c2cc3c(cc2Cl)NC(=O)CO3)C1C (configuration not stated),/,-0.2,0,/,/,
CC(C)Cn1c(N)c(C(=O)COC(=O)c2cccnc2Cl)c(=O)n(C)c1=O,19,/,-1,3%,/,
C=C(C)Cn1c(=S)[nH]c2ccccc2c1=O,-3,-0.1,-8,-10%,-4,
CC(=O)c1ccc(OCCCC(=O)Nc2ccc(C)c(S(=O)(=O)N(C)C)c2)cc1,0,0.7,2,5%,-22,
O=C(CNS(=O)(=O)c1ccccc1)N/N=C/c1ccccc1[N+](=O)[O-],/,-1.3,0,/,/,
CSc1cccc(NC(=S)N(CCC(C)C)C(C)c2ccncc2)c1 (configuration not stated),/,5.7,-1,-1%,/,
O=C(O)c1ccc(N/N=C/c2ccc(-c3ccc(Br)cc3)o2)cc1,/,-74,99,/,/,
O=c1cc(-c2cccc(Br)c2)nc(-c2ccccc2F)o1,8,-2.6,39,-4%,-28,
Cc1c(C(=O)N2CCCCC2C)sc2ncnc(N3CCc4ccccc4C3)c12 (configuration not stated),-13,11,3,-2%,/,
Cn1nc(C(C)(C)C)cc1C(=O)NNC(=O)c1ccc(C(F)(F)F)cc1,/,-0.2,3,6%,/,

# The list continues.
SMILES,Arbovirus anti,RecA intein inh,Mtb bLac sens,Mtb growth,YopH inh,others
Cc1c2c(nc3ccccc13)CCC(C(C)(C)C)C2 (configuration not stated),-9,6.7,-13,6%,/,
COc1ccc(CNC(=O)Cn2ncn3cccc3c2=O)cc1,9,2.1,-4,4%,/,
CCCCn1c(N)c(N(CCOC)C(=O)c2ccc(-c3ccc([N+](=O)[O-])cc3)o2)c(=O)[nH]c1=O,/,2.2,-2,/,/,
Cc1cc(/C=N\NC(=O)COc2cccc3cccnc23)c(C)n1-c1ccc(Br)cc1,6,0.3,40,2%,-19,
CCOC(=O)c1sc(NC(=O)C(CC)Sc2nnc3c4ccccc4n(CC)c3n2)nc1C (configuration not stated),/,2.1,47,34%,/,
CCOC(=O)NC(=O)/C(C#N)=C(/C)N(C)C,0,-3.9,-3,5%,/,
CC(C)CNC(=O)NC(=O)COC(=O)c1cccc(NS(=O)(=O)c2ccc(F)c(F)c2)c1,19,-4.0,5,28%,-15,
COc1ccc(CNC(=O)CN2C(=O)COc3ccc(S(=O)(=O)N4CCC(C)CC4)cc32)cc1,/,1.3,0,/,/,
COc1ccccc1-n1c(SCC(=O)OC(C)C)nc2cccnc21,/,3.9,-7,/,/,
Cc1ccc(NC(=O)CSc2nnc(-c3ccccn3)n2N)cc1F,/,-5.4,23,31%,/,
CN(C(=O)COC(=O)c1cc([N+](=O)[O-])ccc1Sc1ccccc1)C1CCS(=O)(=O)C1 (configuration not stated),17,-0.7,3,0%,/,
O=C(NCc1cccnc1)C(Cl)(Cl)Cl,5,2.7,0,-1%,-18,
Cc1ccc(S(=O)(=O)/N=C(/c2ccc(F)cc2)N(C)C)cc1,/,0.6,-2,/,/,
O=c1ccc2ccc(OCc3nnc(-c4ccccc4Br)o3)cc2o1,4,-1.1,7,-4%,-34,
Cc1cc(C)n(-c2nc(-n3nc(C)cc3C)c3c4c(sc3n2)COC(C)(C)C4)n1,0,2.8,-7,/,1,
CONC(=O)c1cc(OCC(F)(F)F)ccc1OCC(F)(F)F,3,-1.5,99,-3%,-23,
O=C(Nc1ccsc1C(=O)O)c1cccc(Oc2ccccc2)c1,/,3.5,1,/,/,
CC1(C)Cc2c(C#N)c(OCC(=O)c3ccc(Cl)cc3)nc(-c3ccco3)c2CO1,-4,0.1,2,4%,29,
Cc1ccc(S(=O)(=O)N2CCC(C(=O)Nc3ccc4c(c3)OCO4)CC2)cc1,-2,/,9,-3%,-12,
CCOc1ccccc1C(=O)NC1CCNCC1,/,-3.9,-5,/,/,
Cc1cc(C)nc(Nc2cccc3ccccc23)n1,/,-1.6,-7,/,/,
O=C(c1ccc(Cl)cc1)C1CCCN(Cc2cccn2-c2cccnc2)C1 (configuration not stated),12,-0.2,7,0%,/,
CCOC(CNC(=O)c1ccc2c(c1)ncn2-c1ccccc1OC)OCC,/,0.9,-4,/,/,
COc1cc(C(=O)Nc2ccc3c(c2)OCO3)c([N+](=O)[O-])cc1OC,/,3.2,-2,/,/,
CCOc1ccc(NC(=O)CNC(=O)c2cn(-c3ccccc3OC)c(=O)c3ccccc23)cc1,10,2.3,2,-9%,0,
O=c1c2ccccc2c(C=Nc2ccc(O)cc2)c(O)n1Cc1ccccc1,/,-5.1,4,/,/,
CC1(C)CC(O)C(CCC(O)c2ccccc2)C(C)(C)N1 (configuration not stated),-1,-2.3,-7,-3%,-49,
OCCCn1c(C2CCCN2c2nc(-c3ccc(Cl)cc3)cs2)nc2cc(Cl)c(N3CCCCC3)cc21 (configuration not stated),/,1.2,-1,-1%,/,
Clc1ccc(-c2ccnc(-n3cccc3)n2)s1,5,-14,-4,8%,/,
CCCCc1ccc(NC(=O)c2ccc(NS(C)(=O)=O)cc2)cc1,0,-3.0,1,3%,/,
CC1CCN(C(=O)c2cccc(S(=O)(=O)N3CCCCC3)c2)CC1,3,0.5,-14,-9%,-42,
COc1ccc(/C=C/C(=O)c2ccc(Cl)s2)cc1O,-32,-3.1,91,8%,-29,

# Assay outcomes as filed in PubChem.
